# Bioassay records: PubChem BioAssay, PCMD
# Calb biofilm kill: mixtures killing C. albicans biofilm | C. albicans biofilm persisters + clotrimazole, fluorescence viability; primary screen in compound mixtures of four per well | inhibition, % at 7.6 µM | 0.02% of 120,000 active;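 active = inhibition above 30.3% in the primary screen of four-compound pools, then above 30% when the compound was retested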;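 note: compounds exposed to preformed 24 h biofilms for 48 h; the number belongs to the whole pool; some results filed as inactive read as strong as hits; inactives centre near 12; 0% = biofilm with clotrimazole alone and 100% = kill control; retested singly at about 60 µM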
#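 Incubation: 24 h biofilm formation, then 48 h compound exposure, 37 °C | Material: C. albicans biofilms | Buffer or medium: RPMI/MOPS medium, pH 7.0 | Measured by: 2-h Alamar Blue fluorescence, 535/590 nm excitation/emission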
# Numbers without * were called inactive; & = joins results of further samples. The list is partial; count on the stated rates, not on these rows.
SMILES,Calb biofilm kill
O=C(CN1CCN(c2ncccn2)CC1)NCc1ccc2c(c1)OCO2,18
COc1ccc(-c2ccc(N(C)C)cc2)cc1[C@H]1[C@@H]2C=CCC[C@@]2(C)C(=O)N1Cc1ccccc1,16
COc1cc(CC(=O)Nc2ccc(N3CCOCC3)cc2)cc(OC)c1OC,4
COc1cccc(-c2nnc(NC(=O)c3cccs3)s2)c1,12
CN(C)S(=O)(=O)N1CCN(c2ccc([N+](=O)[O-])cc2)CC1,6
Cc1nn(CC2CC2)c(=O)n1-c1cccc(Cl)c1,10
O=C(COc1ccc(Oc2ccccc2)cc1)NCc1cn2ccccc2n1,17
CC1CCN(S(=O)(=O)c2ccc(C(=O)NNC(=O)C3CC3)cc2)CC1,3
CCC(C)n1c(SCC(=O)Nc2cc(C(C)(C)C)nn2-c2ccccc2)nc2ccccc2c1=O (stereo not drawn),9
COc1cc(/C=C2\C(=O)N(C)C(=S)N2C)ccc1O,18
O=C(/C=C/c1ccccn1)c1ccc(Br)cc1O,21
CCc1ccc(C(=O)CN2C(=O)NC(C)(c3ccc(C)cc3)C2=O)cc1 (stereo not drawn),17
CCCNC(=O)COC(=O)c1cc2c(=O)n3ccccc3nc2s1,1
O=C(COC(=O)C1=Cc2ccccc2OC1)NCc1ccco1,2
CCNC(=S)NNC(=O)c1cc(C)nc2ccccc12,15
CCn1c(=O)c([N+](=O)[O-])c(NCCc2ccc(OC)c(OC)c2)c2ccccc21,14
Cc1cc(C)cc(NC(=O)C2CCN(c3cnccn3)CC2)c1,12
CC(C)CNC(=O)c1ccccc1NC(=O)CCSc1ccccc1,-4
COC(=O)C1=C(N)Oc2cc(C)[nH]c(=O)c2C1c1ccccc1OC (stereo not drawn),16
CCN1CCN(CCOc2ccccc2-c2ccccc2)CC1,0
Cc1cc(C(F)(F)F)nc(SCCN2CCOCC2)c1C#N,27
COc1ccc(-c2nnc(SC(C(=O)c3c[nH]c4ccccc34)c3ccccc3)n2N)cc1OC (stereo not drawn),16
Cc1cc(N)n(-c2ccc([N+](=O)[O-])cc2)n1,11
CCn1nc(C)cc1C(=O)n1nc(C)c(Sc2ncccn2)c1C,12
COc1ccc(-c2ncn(CCC#N)c2[N+](=O)[O-])cc1,16
CC(C)c1cc(O)c(-c2ccccc2)c(=O)n1-c1ccc(Cl)cc1,18
N#CCC(=O)N1CC2(CC(c3cccc(NC(=O)COc4ccc(Cl)cc4)c3)=NO2)C[C@@H]1C(N)=O (stereo partly drawn),13
c1ccc(-n2cc(CN3CCC(N4CCOCC4)CC3)c(-c3ccc4c(c3)OCO4)n2)cc1,9
COc1ccc(Cl)cc1C(=O)NC(C)C,0
COc1ccc(/C=N/NC(=O)c2ccc(N(C)S(=O)(=O)c3ccccc3)cc2)cc1OC,8
Cc1ccc(OCC(=O)Nc2ccc(S(=O)(=O)N3CCCCC3)cc2)c([N+](=O)[O-])n1,9
COc1ccc(-n2c(-c3ccco3)nc3c(cnn3-c3ccccc3C)c2=O)cc1,18
Nc1ccc(C(=O)OCC(=O)c2cccc([N+](=O)[O-])c2)cc1,2
Clc1cccc(OCc2nc(-c3ccncc3)n[nH]2)c1,17
CCCOc1ccc(S(=O)(=O)N2CCOCC2)cc1[N+](=O)[O-],11
COc1ccc(CC(=O)OCC(=O)NCc2ccccc2Cl)cc1,12
Cc1ccc(/C=N/n2c(COc3ccccc3)n[nH]c2=S)o1,7
CCOC(=O)CSc1nnc(-c2cccnc2)n1C,19
O=C(O)c1ccc(N=NN2CCCCC2)cc1,0
Cc1cccc(N2CCN(C(=O)c3ccc4nc(N5CCCCC5)sc4c3)CC2)c1C,21

# Sorted by count of non-hydrogen atoms (lowest first): 12 of the compounds above.
SMILES,Calb biofilm kill
COc1ccc(Cl)cc1C(=O)NC(C)C,0
Cc1cc(N)n(-c2ccc([N+](=O)[O-])cc2)n1,11
O=C(O)c1ccc(N=NN2CCCCC2)cc1,0
CCOC(=O)CSc1nnc(-c2cccnc2)n1C,19
COc1ccc(-c2ncn(CCC#N)c2[N+](=O)[O-])cc1,16
Cc1cc(C(F)(F)F)nc(SCCN2CCOCC2)c1C#N,27
CCn1nc(C)cc1C(=O)n1nc(C)c(Sc2ncccn2)c1C,12
COc1ccc(-n2c(-c3ccco3)nc3c(cnn3-c3ccccc3C)c2=O)cc1,18
Cc1cccc(N2CCN(C(=O)c3ccc4nc(N5CCCCC5)sc4c3)CC2)c1C,21
COc1ccc(/C=N/NC(=O)c2ccc(N(C)S(=O)(=O)c3ccccc3)cc2)cc1OC,8
c1ccc(-n2cc(CN3CCC(N4CCOCC4)CC3)c(-c3ccc4c(c3)OCO4)n2)cc1,9
COc1ccc(-c2nnc(SC(C(=O)c3c[nH]c4ccccc34)c3ccccc3)n2N)cc1OC (stereo not drawn),16

# (further entries)
SMILES,Calb biofilm kill
S=c1[nH]nc(-c2cccc(Cl)c2)n1Cc1ccccc1,12
OCC1(Cc2ccccc2C(F)(F)F)CCN(Cc2ccccc2)CC1,25
Cc1cc(-c2csc(NC(=O)c3ccc(=O)[nH]c3)n2)c(C)n1Cc1ccco1,19
COc1ccccc1-c1nc(=S)c(C(C)=O)c(C)[nH]1,17
CC(O)C(=O)N/N=C/c1cccc2ccccc12 (stereo not drawn),14
Cc1sc2ncnc(N[C@@H](Cc3c[nH]c4ccccc34)C(=O)O)c2c1C,22
COC(=O)c1ccc(N=Nc2ccccc2)cc1,-2
Cc1ccc(Nc2nc(CSc3nnc(-c4ccccc4)n3C)cs2)cc1,23
Cn1c(=O)n(CCOc2ccc([N+](=O)[O-])cc2)c2ccccc21,17
COc1ccccc1C(=O)NC(CCSC)C(=O)OCC(=O)c1ccc[nH]1 (stereo not drawn),21
CN(Cc1nc(-c2cccs2)no1)CC1(N2CCOCC2)CCCCC1,20
O=C(CCc1nc2ccccc2c(=O)[nH]1)OCc1ccc(-c2ccccc2)cc1,8
O=C1C2CC=CCC2C(=O)N1CNc1ccccc1 (stereo not drawn),-3
O=C(O)c1ccc(N=C2SCC(=O)N2Cc2ccccc2)cc1,6
CC1CCCC(NC(=O)COC(=O)CSc2ccc3ccccc3c2)C1C (stereo not drawn),5
Cc1ccc(NC(=S)NCCN(C2CCCCC2)C2CCCC2)cc1C,11
NS(=O)(=O)c1ccc(N/N=C/c2cn(-c3ccccc3)nc2-c2cccs2)cc1,13
CC(=O)Nc1ccc(S(=O)(=O)NCCNc2ccccc2[N+](=O)[O-])cc1,4
COc1ccc(NC(=S)N2CCN(C(c3ccccc3)c3ccccc3)CC2)cc1OC,7
CC[n+]1c(/C=C/C=C/N(C(C)=O)c2ccccc2)sc2cc(OC)ccc21,16
O=C(CO/N=C\c1ccccc1)Nc1ccccc1C(=O)N1CCOCC1,1
Cc1cccc(NC2=NC(=S)N(c3cccc(C(=O)O)c3)C23CCCCC3)c1,17
Cc1nn(Cc2cccc(C(=O)NC34CC5CC(CC(C5)C3)C4)c2)c(C)c1Br,5
Cc1ccc(-n2c(SCC(=O)Nc3ccc(C(=O)O)cc3)nnc2-c2ccncc2)cc1,19
CN1CCN(NC(=O)c2ccc(Cl)s2)CC1,20
O=C(COc1cccc(Cl)c1)Nc1ccc2c(c1)CCC2,8
Cn1cc(CN2CCCC(CO)C2)c(-c2ccc(Oc3ccccc3)cc2)n1 (stereo not drawn),5
Cc1cc(C(=O)CSc2n[nH]c(N)n2)c(C)n1-c1ccc2c(c1)OCO2,9
CC(=O)n1cc([C@H]2C=C(C(=O)N3CCOCC3)O[C@@H](OCc3ccc(CO)cc3)C2)c2ccccc21,13
COc1ccc(-c2cc(-c3ccccc3)c(C#N)c(=S)[nH]2)cc1,20
N#CC1=C(N)OC2=C(C(=O)CC(c3ccccc3)C2)C1c1ccoc1 (stereo not drawn),4
CCCc1cc(=O)[nH]c(SCC(=O)N2N=C(c3ccc(Cl)cc3)CC2c2ccco2)n1 (stereo not drawn),5
Cc1cc(C)n(C(=O)CCCCCCCC(=O)n2nc(C)cc2C)n1,14
COc1ccc(OC)c(N(CC(=O)N2CCCCC2)S(=O)(=O)c2ccc(OC)c(OC)c2)c1,14
CC(=O)Nc1ccc(OCC(=O)NCc2ccccc2)cc1,1
[O-]/C(=C(\C(=S)Nc1ccc(SC(F)F)cc1)[n+]1ccccc1)c1cc(Cl)ccc1Cl,2
C=CCN(Cc1nc(-c2ccc(OC)c(OC)c2)oc1C)C1CCS(=O)(=O)C1 (stereo not drawn),16
O=C(COc1cccc(NC(=O)c2ccccc2)c1)c1ccc(F)cc1,11
Oc1ccc(Cl)cc1N=Cc1sc2ccccc2c1Cl,9
CCOc1cnc(C(=O)NNC(=O)C(Br)C(C)C)o1 (stereo not drawn),9
O=C(CSc1nnc2ccc(-c3ccncc3)nn12)c1cccs1,12
CCC(=O)Nc1ccccc1C(=O)C(=O)Nc1ccccc1,14
CC(Nc1cc(N2CCN(S(C)(=O)=O)CC2)ccc1[N+](=O)[O-])c1ccccc1 (stereo not drawn),19
Cc1cc(SCC(=O)Nc2ccc(O)cc2)n2ncc(-c3ccccc3)c2n1,16
NC(=S)Nc1cccc2[nH]ncc12,17
N#C/C(C(=O)NCc1ccccc1)=C1/SC(Cc2ccc(Cl)cc2)C(=O)N1c1ccccc1 (stereo not drawn),21
CN(C)C(=O)Oc1cccc([N+](C)(C)C)c1,12&5
Cc1ccc(CSCC(N)C(=O)O)cc1 (stereo not drawn),19
CCN(CC)S(=O)(=O)c1ccc(Cl)c(NC(=O)COc2ccccc2[N+](=O)[O-])c1,8
COc1cccc(C(=O)NC2CC3CCCC(C2)N3S(=O)(=O)c2ccccc2)c1 (stereo not drawn),19
# The list continues.
SMILES,Calb biofilm kill
CN(C)C(=O)c1nc2ccc(Cl)cn2c1CN1CCN(c2ncccn2)CC1,-6
O=C(NNC(=O)c1ccc(Cl)cc1Cl)c1ccncc1,-14
Cc1cc(Cl)ccc1C(=O)C1CCCN(C(=O)CCn2cnnn2)C1 (stereo not drawn),6
COc1ccc(CNC(=O)c2c(F)c(F)c(F)c(F)c2F)cc1,9
O=C(Nc1cc(C(F)(F)F)ccc1Cl)C(NCc1ccccc1)c1ccccc1 (stereo not drawn),13
COCC(C)OC(=O)/C(C#N)=C\c1coc2ccc(C)cc2c1=O (stereo not drawn),19
COc1cc(-c2cc(C(=O)Nc3c(Cl)cc(Cl)cc3Cl)c3ccccc3n2)cc(OC)c1OC,12
NC1=NC[C@H](Cc2ccc(O)cc2)N1CCc1cc(C(F)(F)F)cc(C(F)(F)F)c1,11
COCCNC(=O)C(=O)N/N=C/c1ccccc1C(F)(F)F,11
O=C(N/N=C/C=C\c1ccc([N+](=O)[O-])cc1)c1cccnc1,24
Cc1ccc(-n2nnnc2-c2ccco2)cc1,15
O=C(Nc1cccnc1Cl)c1noc2c1CCc1ccccc1-2,13
Cc1ccc(S(=O)(=O)N(C)C)cc1NC(=O)C(C)OC(=O)c1ccc2c(c1)OCCO2 (stereo not drawn),8
COc1ccc(C(=O)N/N=C/c2ccc(OC)c(CN3CCCc4ccccc43)c2)cc1,10
O=C(Cn1cnc2ccccc21)Nc1cccc([N+](=O)[O-])c1,5
Cc1ccc2c(Cl)cc(Cl)c(OCC(=O)OCC(=O)Nc3ccc(C#N)cc3)c2n1,22
COc1ccc(C(=O)N/C(=C\c2ccc3c(c2)OCO3)C(=O)NCCc2nc3ccccc3[nH]2)cc1,15
COc1ccc(NC(=O)NCCC2=CCCCC2)cc1,-17
CC(C)=NNC(=O)C1=NNC(=O)C1,26
CCOc1ccc(/C=N/NC(=O)Cc2cccs2)cc1,24
CCCCCCc1cc2cc(S(=O)(=O)c3ccc(C)cc3)c(=O)oc2cc1O,12
O=[N+]([O-])c1ccc2[nH]c(O)c(N=NC(=S)Nc3cccnc3)c2c1,19
CCOCCCN1CN(Cc2ccccc2)CNC1=S,21
CC1(C)Cc2nc3scc(NC(=O)c4ccccc4)c3cc2CO1,13
O=C(O)c1cc(-c2cccnc2)nc2ccc(Br)cc12,22
O=C(NNC(=O)C12CC3CC(CC(C3)C1)C2)c1ccco1,15
Fc1ccc(N2Cc3ccsc3C=N2)cc1,-7
O=C(C1=C[C@H](c2ccc(C(F)(F)F)cc2)C[C@H](OCCCCO)O1)N1CCOCC1,17
COc1ccc(C(=O)NNC(=O)Cc2ccc([N+](=O)[O-])cc2)cc1,15
Cc1ccc(NC(=O)C2CC(=O)N(C(C)C)C2)cc1Cl (stereo not drawn),26
COc1ccc(/C=N/NC(=O)C2C3CCCCC32)cc1OC (stereo not drawn),14
O=C(C[n+]1cc(-c2ccc(Cl)cc2)n2c1CCC2)Nc1nc(-c2ccc(F)cc2)cs1,19
O=S(=O)(CCN1CCN(c2ccccn2)CC1)c1ccc(F)cc1,23
CC(C)NC(=O)c1nn(C)c2ccccc12,12
CCOC(=O)c1c(C)n(CC(O)CN(C)C)c2cc(Br)c(OC)cc12 (stereo not drawn),1
Nc1c(C(=O)c2ccccc2)sc(Nc2ccccc2)c1S(=O)(=O)c1ccccc1,13
O=C(/C(=N\Nc1ccc([N+](=O)[O-])cc1)Sc1nnnn1-c1ccccc1)c1ccccc1,15
CCc1[nH]nc(C(=O)N2CCCC(CNS(=O)(=O)c3cccs3)C2)c1C (stereo not drawn),8
NC(=O)C1CCN(c2cc(N3CCOCC3)ccc2[N+](=O)[O-])CC1,12
CC(NC(=O)C1CCN(S(=O)(=O)c2cc([N+](=O)[O-])ccc2Cl)CC1)c1ccccc1 (stereo not drawn),4
O=C1c2ccncc2C(=O)N1c1cccc(Cl)c1,8
CCC(C)[C@H](NC(=O)N1CCCCC1)C(=O)OC (stereo partly drawn),20
